Biofilm kill mix: clotrimazole potentiators killing C. albicans biofilm, primary screen, 4-compound mixtures; C. albicans biofilm persisters + clotrimazole, fluorescence viability; primary screen in compound mixtures of four per well; inhibition, % at 7.6 µM; 120,000 compounds, 0.02% hits; AID 1242, 2008;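 active = inhibition above 30.3% in the primary screen of four-compound pools, then above 30% when the compound was retested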;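 also: compounds exposed to preformed 24 h biofilms for 48 h; the number belongs to the whole pool; some results filed as inactive read as strong as hits; inactives centre near 12; 0% = biofilm with clotrimazole alone and 100% = kill control; retested singly at about 60 µM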
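Incubation: 24 h biofilm formation, then 48 h compound exposure, 37 °C | Material: C. albicans biofilms | Buffer or medium: RPMI/MOPS medium, pH 7.0 | Measured by: 2-h Alamar Blue fluorescence, 535/590 nm excitation/emission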
* marks the source's active call; other numbers are inactive results. A portion of the library; the hit share may differ from the screen's.

Compound	Biofilm kill mix
CCCCn1c(=O)[nH]c(=O)c2c1nc(-c1ccc(CC)c([N+](=O)[O-])c1)n2C	6
COCCNC(=S)N/N=C(\C)c1ccccc1OC	17
O=C(NCc1ccccn1)c1ccc2c(c1)N(Cc1ccccc1)CCS2	25
COc1ccc(-c2nc(O)c3cnccn23)cc1	10
Cc1[nH]c2ccccc2c1C(c1ccncc1)N1CCN(c2ccccn2)CC1 (centres undefined)	0
O=C1S/C(=C\c2ccccn2)C(=O)N1Cc1ccccc1F	10
COC(=O)CCC(=O)OC1(C)C(=O)C2=CN(CC(C)C)C(c3ccc(OC)cc3)=CC2=C(Br)C1=O (centres undefined)	10
COc1ccc(N2C(=O)C(Cl)=C(Nc3ccccc3OC)C2=O)cc1	20

Compound	Biofilm kill mix
CCCNC(=O)c1sc2c(c1C(=O)Nc1ccccn1)CCCC2	17
Cc1cc(NC(=O)CSc2nnc(-c3c[nH]c4ccccc34)n2C)no1	17
C/C(=N\Nc1nc2ccccc2[nH]1)c1cc2ccccc2o1	15
CCOc1cc(N2CCOCC2)c(OCC)cc1NC(=O)c1cccc(N(C)C)c1	14
CN(c1ccc(C(=O)Nc2ccccn2)cc1)S(=O)(=O)c1ccccc1	-4
Cc1cccc(C(=O)N(c2ccccn2)C(C)c2ccco2)c1 (centres undefined)	10
Cc1ccccc1OCc1nc2ccccc2c(=O)n1/N=C/c1cn[nH]c1-c1ccccc1	17
Cc1cccc(NS(=O)(=O)c2ccc(NC(=O)CN(c3cc([N+](=O)[O-])ccc3C)S(C)(=O)=O)cc2)c1	11

Compound	Biofilm kill mix
Cc1sc2nc(COC(=O)c3ccc(O)cc3)[nH]c(=O)c2c1C	20
COc1cccc2c(=S)c(CCC(C)=O)c(C)[nH]c12	14
COc1ccc(-n2c(COc3ccc4c(c3)OCO4)nnc2SCC(=O)O)cc1	15
CSc1ccc(/C=N/NC(=O)CNc2cccc3ccccc23)cc1	20
O=C(c1c[nH]c2ccc(F)cc2c1=O)N1CCCCCC1	9
O=C(c1ccc2c(c1)N(Cc1cccc(Cl)c1)C(=O)c1ccccc1S2(=O)=O)N1CCN(c2ccccn2)CC1	21
CCOC(=O)c1cc(CC)sc1N1C(=O)CC(Sc2ncccc2C(=O)O)C1=O (centres undefined)	11
O=C(NC(=S)Nc1ccccc1N1CCCC1)c1ccc([N+](=O)[O-])cc1	7

Compound	Biofilm kill mix
OCCC1CN(Cc2ccccc2O)CCN1CCc1ccccc1 (centres undefined)	14
COc1ccc(NC(=O)NC23CC4(C)CC(C)(CC(C)(C4)C2)C3)cc1	18
Cc1cc(OC(=O)c2ccco2)c(Sc2ccccc2[N+](=O)[O-])c(=O)o1	7
NS(=O)(=O)c1cccc(NS(=O)(=O)c2ccc(/C=C/C(=O)OCC(=O)c3ccccc3)cc2)c1	14
Cc1ccc(C(=O)N/C(=C/c2ccco2)C(=O)O)cc1	17
COc1ccccc1NC(=O)N1CCN(c2ccc(F)cc2)CC1	9
CCC(CC)c1nnc(NC(=O)[C@@H](NC(=O)c2cccc(C)c2)C(C)C)s1	17
NNS(=O)(=O)c1ccc(Sc2ccccn2)c([N+](=O)[O-])c1	20

Compound	Biofilm kill mix
C/C(=N\Nc1nc(-c2ccccn2)nc2ccccc12)c1ccc(F)cc1	16
CCOC(=O)C1(CCOC)CCN(C(=O)c2ccccc2-c2cccc(C)c2)CC1	9
O=C(COc1ccccc1)NCc1ccc(-n2cccc2)cc1	17
O=C(CNC(=O)c1cccs1)c1ccc([N+](=O)[O-])cc1	13
O=S(=O)(Cc1cc(Cl)nc(-c2ccncc2)n1)c1ccccc1	17
CCO[C@@H]1OC(C(=O)NC2CC2)=C[C@H](C)[C@H]1CCCO	11
CC(C)C(NC(=O)c1ccc(Br)cc1)C(=O)NC1=NCCS1 (centres undefined)	13
Cc1ccc(S(=O)(=O)NCC(=O)OCc2csc(-c3ccccc3)n2)cc1	8

Compound	Biofilm kill mix
Cc1cc(=O)[nH]c(=S)[nH]1	18
NC(=O)C1CCN(CC(=O)Nc2cc(Cl)ccc2Oc2ccccc2)CC1	8
Cc1cc(C)nc(-n2ncc3c2CC(C)CC3=O)n1 (centres undefined)	16
CCOc1cc(N2CCOCC2)c(OCC)cc1NC(=O)CN1CCN(Cc2ccc3c(c2)OCO3)CC1	15
N#Cc1ccc(OCC(=O)Nc2cc(S(=O)(=O)N3CCOCC3)ccc2N2CCOCC2)cc1	0
Cc1cccc(Nc2nnc(SCC(=O)Nc3ncc(C(F)(F)F)cc3Cl)s2)c1C	17
Cc1ccc(S(=O)(=O)Nc2c(C)ccc3nsnc23)cc1	13
COc1cccc2cc(C(C)N(CCCN3CCOCC3)C(=S)Nc3ccc(C)cc3)oc12 (centres undefined)	20

Compound	Biofilm kill mix
Cc1nnc(SCc2nnc(-c3ccccc3Br)o2)s1	10
C=C(C)C(=O)Nc1cccc(C2=NOC3(C2)C[C@H](C(N)=O)N(C(=O)C(c2ccccc2)c2ccccc2)C3)c1 (some centres undefined)	13
O=C(NN1C(=O)C2C3C=CC(C3)[C@H]2C1=O)c1cccnc1 (some centres undefined)	15
ClC1(Cl)CC1CSc1nc2ccccc2[nH]1 (centres undefined)	9
CN1C(=O)/C(=C/C=C2\SCCN2C)N(C)C1=S	8
COc1ccc2cc[nH]c2c1	8
Cc1ccc2c(c1)c1nnc(SCC(=O)Nc3cccc(Cl)c3C)nc1n2CC(=O)O	6
COc1ccc(-n2c(C(C)(C)C)csc2=Nc2c(C)n(C)n(-c3ccccc3)c2=O)cc1	13

Compound	Biofilm kill mix
CCOc1ccc(N2CC(C(=O)Nc3cccc(S(=O)(=O)N4CCCCC4)c3)CC2=O)cc1 (centres undefined)	13
CCNC(=O)COc1cc(C)c(Br)c(C)c1	17
COc1ccc(NC(=S)N2CCN(C(c3ccccc3)c3ccccc3)CC2)c(OC)c1	25
Cc1ccc(C(=O)N/C(=C\c2ccc(C(C)C)cc2)C(=O)NCCCN2CCOCC2)cc1	11
CCCCN(C(=O)Cn1nnc2ccccc21)C(C(=O)NCCOC)c1ccccc1 (centres undefined)	18
CN(Cc1nc(Cc2ccccc2F)no1)Cc1cccc2ncccc12	32
CCn1c(=N)n(CC(=O)c2cccc([N+](=O)[O-])c2)c2ccccc21	-2
CN(C)c1cccc(C(=O)OC(C(=O)Nc2ccc([N+](=O)[O-])cc2Br)c2ccccc2)c1 (centres undefined)	13

Compound	Biofilm kill mix
Cc1ccc(S(=O)(=O)NCCC(=O)Oc2ccc3ccc(=O)oc3c2)cc1	27
Cn1c(SCC(=O)NC(=O)c2cccc([N+](=O)[O-])c2)nnc1-c1ccc(F)cc1	8
O=C(CSc1nccc(=O)[nH]1)Nc1ccc2c(c1)OCCO2	13
Cc1ccc(N2CCN(C(=O)c3cc(C(=O)c4ccccc4C)c[nH]3)CC2)c(C)c1	16
CCOC(=O)c1ccc(NC(=O)Cn2ccc([N+](=O)[O-])n2)cc1	21
Cc1c(CN2CCc3c([nH]c4ccccc34)C2C2CCCCC2)cnn1C (centres undefined)	16
O=C(COC(=O)C1(c2ccc(F)cc2)CCCC1)NCc1ccco1	19
COc1cc(OC)nc(N/N=C(\c2ccccc2)c2ccncc2)n1	9

Compound	Biofilm kill mix
COc1ccccc1NC(=O)CCC(=O)OCc1ccc(Cl)cc1	13
Cc1cc(/C=C2\SC(N)=NC2=O)c(C)n1-c1ccc(F)cc1	26
CCOC(=O)c1cc(C)nc(S(C)(=O)=O)c1C#N	9
Cc1ccc(S(=O)(=O)N2CCN(C(=O)c3cc(=O)c4ccccc4o3)CC2)cc1	12
CCN(/N=C/c1ccccc1)c1cc(=O)n(C)c(=O)[nH]1	5
O=C(Oc1ccc(N(C(=O)c2ccncc2)S(=O)(=O)c2ccc(F)cc2)cc1)c1ccncc1	10
COC(=O)c1ccc(CSC(=N)N)o1	30
O=C(CSc1nnc2c(n1)[nH]c1ccccc12)NCc1ccco1	11

Compound	Biofilm kill mix
Cc1cccc(Nc2sc(C(=O)c3cc4cc(Cl)ccc4o3)c(N)c2C#N)c1	20
Cc1ccsc1/C=N/NC(=O)c1cccs1	14
c1ccc(-c2[nH]ncc2CN2CCc3ccccc3C2)cc1	22
COC(C(=O)NC1CC1)c1ccccc1 (centres undefined)	12
COc1ccc(CCn2c(N)cc(=O)[nH]c2=O)cc1OC	13
Cc1cc(NC(=O)COC(=O)c2ccccc2[N+](=O)[O-])no1	10
CCCCOc1ccc(C(=O)CCN2CCOCC2)cc1	8
COC(=O)NNC(=O)C1CCC(C(=O)NNC(=O)OC)CC1 (centres undefined)	11

Compound	Biofilm kill mix
CCOc1ccc(OCC)c(NC(=O)C2CCN(S(=O)(=O)c3c(C)[nH]c(=O)[nH]c3=O)CC2)c1	9
Cc1[nH]c(=O)[nH]c(=O)c1/C=N/NC(=O)[C@@H](N)CC(C)C	19
O=[N+]([O-])c1cc(CN(CCO)CCO)ccc1O	23
COc1ccc(NC(=O)CCN2C(=O)/C(=C/c3ccc4c(c3)OCO4)SC2=S)cc1	15
CC1=C(C(=O)OCC2CCCO2)C(c2coc3ccc(C)cc3c2=O)C2=C(CCCC2=O)N1 (centres undefined)	4
Fc1cc(F)cc(NC(=S)NN2CCOCC2)c1	4
O=C(c1ccco1)N1CCN(C(=O)C2CC2)CC1	19
COc1ccc(C)cc1NCC(=O)Nc1ccc(C(C)(C)C)cc1	20

Compound	Biofilm kill mix
COc1ccc(CC(=O)NC(C)CCc2ccccc2)cc1 (centres undefined)	11
O=C(NNc1cc(N2CCOCC2)nc(N2CCOCC2)n1)C12CC3CC(CC(C3)C1)C2	3
CCOC(=O)C1=C(CS(=O)(=O)c2ccccc2)NC(=O)NC1c1cccc(OC)c1 (centres undefined)	11
S=C(NCc1ccccc1)NN1CCOCC1	21
CN1CCc2c(sc(NC(=O)c3cc4cc([N+](=O)[O-])ccc4s3)c2C(N)=O)C1	14
O=[N+]([O-])c1ccc(COn2nnc3ccccc32)cc1	8
CSc1cccc(NC(=S)N2CCC(N(C)C3CCCCCC3)CC2)c1	22
CN(C)CCCNCC(=O)NN(c1ccccc1)c1ccccc1	2

Compound	Biofilm kill mix
COCCN(C(=O)CNC(=O)c1ccco1)C(C(=O)NC1CCCC1)c1cccs1 (centres undefined)	11
O=C(/C=C/c1ccccc1)NC1CC2CCCC(C1)N2Cc1ccccc1 (centres undefined)	16
O=C(NCc1ccccc1)[C@@H]1C[C@H]1[C@@H](NP(=O)(c1ccccc1)c1ccccc1)c1ccccc1	15
O=C(/C=C\c1ccc2c(c1)OCO2)Nc1nnc(SCC(=O)OCc2ccccc2)s1	9
CC(=O)Oc1ccc(OC(C)=O)c(SCCCCCCl)c1	19
O=C(CSc1nnc(-c2ccccc2)n1-c1ccc(Cl)cc1)NC1CCS(=O)(=O)C1 (centres undefined)	1
OCCC1CN(Cc2nc(-c3ccccc3)cs2)CCN1Cc1ccc(F)cc1 (centres undefined)	10
O=C(NC(=S)Nc1ccccc1)c1cc([N+](=O)[O-])ccc1N1CCOCC1	5

4 compounds already listed, ordered by number of heavy atoms, lowest first:
Compound	Biofilm kill mix
CC(=O)Oc1ccc(OC(C)=O)c(SCCCCCCl)c1	19
O=C(/C=C/c1ccccc1)NC1CC2CCCC(C1)N2Cc1ccccc1 (centres undefined)	16
O=C(CSc1nnc(-c2ccccc2)n1-c1ccc(Cl)cc1)NC1CCS(=O)(=O)C1 (centres undefined)	1
O=C(NCc1ccccc1)[C@@H]1C[C@H]1[C@@H](NP(=O)(c1ccccc1)c1ccccc1)c1ccccc1	15

Next section:
Compound	Biofilm kill mix
CCOc1cc(NC(=S)NCCCN2CCOCC2)c(OCC)cc1NC(=O)C1CC1	15
O=c1c2ccccc2c(-c2ccccc2)nn1-c1ccccn1	10
CN1CCN(c2nc(-c3cccnc3)nc3scc(-c4ccccc4)c23)CC1	9
CCOc1ccc(NC(=S)N(CCc2c(C)[nH]c3ccccc23)Cc2ccco2)cc1	12
COc1ccc(CNC(=O)C(NC(C)=O)C(=O)Nc2ccc(C(C)C)cc2)cc1 (centres undefined)	7
CCOc1ccc(C(C)NC(=O)c2cccnc2OCC)cc1OCC (centres undefined)	4
Cc1ccc2nc(NC(=O)C3CCN(S(=O)(=O)c4cnc[nH]4)CC3)sc2c1	10
COc1ccc(NC(=O)c2cccs2)cn1	13

Of the compounds above, these have a cyano group.
Compound	Biofilm kill mix
N#Cc1ccc(OCC(=O)Nc2cc(S(=O)(=O)N3CCOCC3)ccc2N2CCOCC2)cc1	0
CCOC(=O)c1cc(C)nc(S(C)(=O)=O)c1C#N	9
Cc1cccc(Nc2sc(C(=O)c3cc4cc(Cl)ccc4o3)c(N)c2C#N)c1	20

Later entries
Compound	Biofilm kill mix
C#CCNC(=O)/C=C/c1ccc(OC)cc1	17
CC(=O)c1ccc(N2CCN(CC(O)COCc3ccco3)CC2)cc1 (centres undefined)	11
Cc1ccc(NC(=S)Nn2cnnc2)cc1	8
Clc1ccc(-c2nnc(COc3ncnc4ccccc34)o2)cc1	5
O=C(CN1CCN(Cc2ccccc2)CC1)N/N=C/c1ccco1	15
COc1cc(NC(=O)CSc2nnnn2Cc2ccccc2)cc(OC)c1	8
O=C(Cn1cnc2c(nnn2Cc2ccc(F)cc2)c1=O)NCc1ccc(F)cc1	17
Cc1cc2ccccn2c1C(=O)c1ccc(N/N=C/c2ccc(C(=O)O)cc2)c([N+](=O)[O-])c1	3
Cc1ccc(S(=O)(=O)N2CCOCC2)cc1NC(=O)COC(=O)CNC(=O)c1ccc(C(C)(C)C)cc1	-11
CC(C)c1ccc(NC(=O)COc2ccc(C3SCCS3)cc2)cc1	9

Assay outcomes from PubChem BioAssay.
